Screening results (PubChem BioAssay)
RE007 growth inh – qHTS Assay for Inhibitors of the HIV-1 protein Vpr | S. pombe RE007 Vpr strain, BacTiter-Glo ATP luminescence, 24 h; control for the full effect not named in the record | Potency, µM (top dose mostly 92.2 µM), without a hit: top-dose activity change, negative = less growth | 360,000 compounds, 0.21% hits | AID 651644, 2012; active = well fitted falling curve with a large enough effect; inconclusive = small, poorly fitted or top-dose-only effect; inactive = no such curve, though single readings can be large or run the other way;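 also: nearly all actives have a fitted effect of over 50% in size; the assay follows cell death caused by Vpr and the record does not say whether a fall means rescue or toxicity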
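Fission yeast RE007 carrying one integrated HIV-1 vpr copy, seeded at OD 0.01 in PMG+AL medium with 23 nL pinned compound. Grown 24 h at 30 degrees; viability read by BacTiter-Glo luminescence after 5 min.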
2A StopGo – High Throughput Screening for Foot and Mouth Disease Virus Antivirals. human cells with a luciferase reporter of 2A StopGo recoding; control for the full effect not named in the record. Potency, µM (top dose mostly 57.9 µM), without a hit: at the top dose signal change, negative = less light. 410,000 compounds, 1.2% hits. AID 1159524, 2015; active = well fitted falling curve with a large enough effect; inconclusive = small, poorly fitted or top-dose-only effect; inactive = no such curve, though single readings can be large or run the other way; tested in HEK293T cells; also: nearly all actives have a fitted effect of over 45% in size; luciferase light after 4 h
Active calls of the source: *; ? = inconclusive; [ ] = dose if it differs, or a comment. % is scaled to controls: 0 for no effect and ±100 for the full control effect; potency is read from the fitted curve at half-maximal effect.

| structure | RE007 growth inh | 2A StopGo |
| --- | --- | --- |
| O=S1(=O)N[C@@H](Cc2ccccc2)COc2cc(N3CC[C@H](O)C3)ccc21 | 7% | 0% |
| Cc1cc(=O)c2c(=O)[nH][nH]c2[nH]1 | -25% | -24% |
| CCN(CC)S(=O)(=O)c1ccc(N2CCOCC2)c(NC(=O)c2nn(C(C)C)c(=O)c3ccccc23)c1 | -12% | ? |
| c1ccc(-c2cc3nc(NCc4cccs4)nc(NCc4ccc5occc5c4)c3s2)cc1 | 13% | 0% |
| CC1(C(=O)NS(=O)(=O)Cc2cccc(Cl)c2)CCN1C(=O)CCc1cccs1 (stereo not drawn) | 2% | -9% |
| O=C(NCc1ccccc1Br)c1cccs1 | 7%[18.4 µM] | -7% |
| C[C@H]1C/C=C/[C@H]2[C@H](O)[C@H](C)[C@@](C)(O)[C@H]3[C@H](Cc4ccccc4)NC(=O)[C@]32[C@H](O)/C=C/[C@](C)(O)C1 | 5% | -22% |
| CCC/C=C/c1ccc(CN2C(C(C)C)C(=O)N(Cc3cn(CCC4OCCCO4)nn3)CCS2(=O)=O)cc1 (stereo not drawn) | -25% | ? |
| CCCNC(=O)C[C@@H]1CC[C@H]2NC[C@H](O)COC[C@@H]2O1 | -5% | -16% |
| CCc1nc2c(OCc3cccc(OC)c3)cccn2c1N(C)C(=O)c1ccc(OC)cc1 | -11% | -7% |
| COc1cccc(CNC(=O)[C@@H]2CCCN2C(=O)[C@@H]2CCCN2C(=O)c2ccc(Cl)cc2)c1 | -3% | -21% |
| C#Cc1ccc(NC(=O)C2(C)CCN2C(=O)C/C=C/c2ccccc2)cc1 (stereo not drawn) | 7% | -18% |
| COCCNC(=O)C1CCCN(C(=O)c2cc(C)nn2C(C)(C)C)CC1 (stereo not drawn) | 5% | -7% |
| Cc1cnc(C(=O)N(c2ccc(N3CCOCC3)cc2)C2C(=O)Nc3ccccc3N=C2c2ccc3c(c2)OCO3)cn1 (stereo not drawn) | -8% | 23% |
| CC1=C(C(=O)N(C)C)CC(CC(=O)NC(c2ccccc2)c2ccccc2)C(=O)N1Cc1ccc(F)cc1 (stereo not drawn) | -4% | -17% |
| COC(C/C=C\[C@H](O)[C@H](C)OCc1ccccc1)OC | 2% | -11% |
| CCOC(=O)[C@@H](NC(=O)CC[C@H]1O[C@@H](n2cc(C)c(=O)[nH]c2=O)C[C@@H]1O)C(C)C | 0% | -7% |
| COc1cc(C(O)c2nc(-c3cccc(C(F)(F)F)c3)cs2)ccc1F (stereo not drawn) | ? | -11% |
| O=C1NC[C@H](CCCCN2C[C@H](Cc3ccccc3)N(CCc3ccccc3)C(=O)C2=O)N(CCC2CCCCC2)C1=O | 2% | -18% |
| O=C(Nc1ccc2c(c1)OCO2)C1Cc2c(-c3ccc4c(c3)OCO4)ccnc2O1 (stereo not drawn) | -16% | -27% |
| CCCCC[C@@H]1CCCCC[C@@H](O)C[C@H](O)[C@H](O)/C=C/C(=O)O1 | 0% | ? |
| Cc1cccnc1C(NC(=O)C1CCN(Cc2ccc(Cl)cc2)CC1)c1ccccc1 (stereo not drawn) | -5% | -17% |
| O=NN(C(=O)NCc1cccnc1)C1CCCCC1 | 14% | 4% |
| O=C(NCc1cccc(F)c1)Nc1nnc([C@H]2C[C@H](O)[C@@H](CO)O2)s1 | 1% | -8% |
| C#CCOCCOCCOCCNc1nc(N2CCN(C(=O)[C@H](C(C)C)n3cc(CCO)nn3)CC2)nc(N2CCN(C(=O)[C@H](C)n3cc(CCCN=C(N)N)nn3)CC2)n1 | 8% | 8% |
| Cc1ccc(C(C#N)=Cc2ccc3c(c2)OCO3)cc1 | 2% | -27% |
| Cc1cn([C@H]2C[C@H](O)[C@@H](CNC(=O)[C@H]3CCC(=O)N3)O2)c(=O)[nH]c1=O | -24% | 5% |
| COc1ccc(C(C)=O)cc1Cn1c(C)c(C(=O)NCCC#N)sc1=O | 2%[18.4 µM] | -9% |
| CCCCN(C)c1c(C)nc2ccc(C(=O)N(C)CCN(C)C)cn12 | -7%[18.4 µM] | -10% |
| O=S1(=O)CC(N2CCC(Cc3ccccc3)CC2)CN1CCc1ccccc1 (stereo not drawn) | -8% | ? |
| CC(C)(C)c1ccc(C2=CC(c3ccccc3)n3ncnc3N2)cc1 (stereo not drawn) | 19% | 22% |
| COc1ccc(CN2CCC(C)(Oc3cccc(F)c3)C2)c2ccccc12 (stereo not drawn) | ? | -5% |
| COc1ccccc1-c1csc(C(O)c2ccc(F)c(F)c2)n1 (stereo not drawn) | 9% | -2% |
| COc1cc(CN2C[C@@H](CO)O[C@@H](n3cnc4c(NCCN(C)C)ncnc43)C2)cc(OC)c1OC | -8% | 0% |
| COc1cccc(CN2CCC2(C)C(=O)Nc2cnc3ccccc3c2)c1F (stereo not drawn) | -5%[18.4 µM] | 0% |
| COc1cc(C=Cc2nnc3c4ccccc4cnn23)cc(OC)c1OC | 8% | 0% |
| CCOC1=C2[C@H](c3ccccc3)N(S(=O)(=O)c3ccc(C)cc3)C(C(C)(C)C)[C@H]2n2c(=O)n(-c3ccccc3)c(=O)n2C1 (stereo partly drawn) | 6% | -15% |
| CC(O)(c1ccccc1)c1nc(-c2ccccc2)cs1 (stereo not drawn) | 9%[18.4 µM] | -14% |
| OC(c1ccc(Cl)c(F)c1)c1ncc(-c2ccc(Cl)cc2)[nH]1 (stereo not drawn) | ? | 7% |
| CCOC(=O)C1=C(C)NC(C)=C(C(=O)OCC)C1c1cccc([N+](=O)[O-])c1 | 8% | ? |
| COCCCN1C(=O)C(CC(=O)NCc2cccc3ccccc23)CC(C(=O)N2CCOCC2)=C1C (stereo not drawn) | 11% | -13% |
| Cc1cc(O)ccc1Nc1cc(-c2cccc(N(C)C)c2)ncn1 | -8% | 44%[activator] |
| O=C(Nc1cccc(F)c1)N1CCc2nc(NCc3cccc(Oc4ccccc4)c3)ncc2C1 | 3%[18.4 µM] | ? |
| COC(=O)C[C@H]1CC[C@@H]2[C@H](COC[C@H](O)CN2S(=O)(=O)c2ccccc2OC)O1 | 1% | -9% |
| Cc1cccc(C)c1NC(=O)C(c1ccccc1)N1CCN(c2ccc(C(F)(F)F)cn2)CC1 (stereo not drawn) | 1% | -16% |
| CN(C)CCNC(=O)c1cccc(-c2cnc3c(NC=O)cc(-c4cccc(F)c4)cn23)c1 | -8%[18.4 µM] | -6% |
| CSc1ccc(NC(=O)C2(C)CCN2C(=O)c2cc(C)n(C)n2)cc1 (stereo not drawn) | -8% | -28% |
| COc1ccc(C(C)(O)c2nc(-c3ccccc3C)cs2)cc1 (stereo not drawn) | -15%[18.4 µM] | ? |
| CCc1nc2ccc(C(=O)N(C)CCN(C)C)cn2c1N(CC)CCOC | -11%[18.4 µM] | -5% |
| O=C(COc1ccc(CNC[C@H]2O[C@@H](n3ccc(=O)[nH]c3=O)[C@H](O)[C@@H]2O)cc1)Nc1ccccn1 | -24% | -2% |
| Cc1cc(NC(=O)C(C)SCC(=O)Nc2ccc(C(=O)OC(C)C)cc2)no1 (stereo not drawn) | 11% | -16% |
| Cn1c(NCc2cccnc2)nc2cc(-c3cccc(C(F)(F)F)c3)sc2c1=O | -4% | -29% |
| COc1ccc(-c2cc(NC=O)c3ncc(-c4cnn(C)c4)n3c2)cc1 | 23%[18.4 µM] | -12% |
| CC(Cl)=CCn1c(NCCc2ccccc2)nc2c1c(=O)n(C)c(=O)n2C | -10% | 13µM* |
| C[C@H]1CN(c2ccccc2)C(=O)[C@@H]1CC(=O)Nc1ccccc1 | -13% | 0% |
| COc1ccccc1-c1csc(C(O)c2ccccc2)n1 (stereo not drawn) | 0% | 5% |
| COC(=O)c1ccc2nc(-c3ccc(C)cc3)c(Cc3cccc(F)c3)n2c1 | -28% | ? |
| CC(C)(C)c1ccc(S(=O)(=O)NC(=O)C2(C)CCN2C(=O)C2CC2)cc1 (stereo not drawn) | 48% | 23% |
| Cc1ccc(C)c(N2CCN(C3C(=O)Nc4ccccc4-n4nnnc43)CC2)c1 (stereo not drawn) | 14% | ? |
| Oc1cccc(CN2CCN(c3ncc(Cc4ccccc4)cn3)CC2)c1 | -26% | -2% |

Filtered by structure: the entries above containing a Cl atom (5)
| structure | RE007 growth inh | 2A StopGo |
| --- | --- | --- |
| CC1(C(=O)NS(=O)(=O)Cc2cccc(Cl)c2)CCN1C(=O)CCc1cccs1 (stereo not drawn) | 2% | -9% |
| COc1cccc(CNC(=O)[C@@H]2CCCN2C(=O)[C@@H]2CCCN2C(=O)c2ccc(Cl)cc2)c1 | -3% | -21% |
| Cc1cccnc1C(NC(=O)C1CCN(Cc2ccc(Cl)cc2)CC1)c1ccccc1 (stereo not drawn) | -5% | -17% |
| OC(c1ccc(Cl)c(F)c1)c1ncc(-c2ccc(Cl)cc2)[nH]1 (stereo not drawn) | ? | 7% |
| CC(Cl)=CCn1c(NCCc2ccccc2)nc2c1c(=O)n(C)c(=O)n2C | -10% | 13µM* |

Other entries follow.
| structure | RE007 growth inh | 2A StopGo |
| --- | --- | --- |
| CC1CCC2(CC1)NC(=O)N(CC(=O)NCc1ccco1)C2=O (stereo not drawn) | 12% | -13% |
| C[C@@H]1CN([C@@H](C)CO)C(=O)CCCn2nncc2CO[C@H]1CN(C)C(=O)c1cc(-c2ccccc2)on1 | -4% | -7% |
| C[C@@H]1CN([C@H](C)CO)C(=O)c2cc(C#CC3CCCCC3)cnc2O[C@H]1CN(C)Cc1cccnc1 | 10% | -14% |
| COc1cccc(-c2n[nH]nc2C2=CC(=O)C[C@H](c3ccc(F)cc3)C2)c1 | 7% | 0% |
| Cn1c(=O)c2cc(NC(=O)Cc3cccc4ccccc34)ccc2n1-c1ccccc1 | 2% | 0% |
| COc1ccc(Cl)cc1N(CC(=O)NCc1ccccn1)S(=O)(=O)c1ccc(C)cc1 | 3% | 43%[activator] |
| C[C@H](CO)N1C[C@H](C)[C@@H](CN(C)C(=O)Nc2ccc(C(C)(C)C)cc2)OCc2cnnn2CCCC1=O | -5% | -13% |
| CC(C)CN1CCC1(C)C(=O)Nc1cc(-c2ccccc2)nn1C (stereo not drawn) | -24%[18.4 µM] | 0% |
| Clc1cccc(N2Cc3cc(N4CCOCC4)ccc3-n3nncc3C2)c1 | -12% | -1% |
| CC1(Oc2cccc(F)c2)CCN(Cc2ccc3ccccc3c2)C1 (stereo not drawn) | ? | -20% |
| CC1(C)NC(=O)N(CC(=O)OCC(=O)Nc2c(Br)cc([N+](=O)[O-])cc2Br)C1=O | -5% | -10% |
| COc1ccc(-n2c(SCC(=O)NCC3CCCO3)nc3ccccc3c2=O)cc1Cl (stereo not drawn) | -2% | -11% |
| Cc1cccc(C)c1NC(=O)C(c1cc2ccccc2o1)N1CCC(c2ccccc2)CC1 (stereo not drawn) | -4% | -21% |
| C[C@H](CO)N1C[C@H](C)[C@H](CN(C)C(=O)Nc2ccc(F)cc2)OCc2cnnn2CCCC1=O | 10% | -5% |
| CC(=O)Nc1ccc(-c2ccnc3c2CC(C(=O)NCCC(F)(F)F)O3)cc1 (stereo not drawn) | -12%[18.4 µM] | -6% |
| COCCCn1c(=O)/c(=C/c2ccccc2OC(C)C)s/c1=C(\C#N)C(=O)Nc1ccc(C(=O)O)cc1 | -2% | -26% |
| Cc1cccc(C)c1NC(=O)C1(C)CCC(=O)N1C1CC1 (stereo not drawn) | 1% | 0% |
| CCCCCCCCN1C(=O)[C@H](CC(=O)NCC2CCCCC2)C[C@@]2(C(=O)OCC)CCC=C12 | 7% | 5% |
| Cc1ccc(C(O)c2ncc(-c3cccc4ccccc34)[nH]2)cc1F (stereo not drawn) | -13% | 8% |
| COc1ccccc1C(=O)N/C(=C/c1ccc(Br)cc1)C(=O)N1CCOCC1 | 2% | -9% |

No new results follow: entries from further up.
| structure | RE007 growth inh | 2A StopGo |
| --- | --- | --- |
| Cc1ccc(C)c(N2CCN(C3C(=O)Nc4ccccc4-n4nnnc43)CC2)c1 (stereo not drawn) | 14% | ? |
| Oc1cccc(CN2CCN(c3ncc(Cc4ccccc4)cn3)CC2)c1 | -26% | -2% |

Continuation:
| structure | RE007 growth inh | 2A StopGo |
| --- | --- | --- |
| O=C(/C=C/[C@H]1O[C@@H](n2cnc3c(NC(=O)c4ccccc4)ncnc32)[C@H](O)[C@@H]1O)NCc1ccc2c(c1)OCO2 | 1% | -11% |
| CCCC(=O)Nc1cc(OC)c(NC(=S)Nc2cccc(C)c2)cc1OC | 4% | -3% |
| COc1cc2c(cc1OC)C(O)=CC(=O)C2=O | -25% | -10% |
| Cn1c(=O)c2c(-c3ccccc3)n(-c3ccccc3S)cc2n(C)c1=O | -17% | -24% |
| CCOC(=O)N1CCN(C(=O)C[C@@H]2C[C@@]3(C(=O)OC)CC(C)(C)CC=C3N(Cc3ccc4c(c3)OCO4)C2=O)CC1 | -5% | -17% |
| CC1=C(C(=O)N2CCCCCC2)CC(CC(=O)NCCc2ccccn2)C(=O)N1Cc1ccc(C(C)(C)C)cc1 (stereo not drawn) | -17% | -27% |
| COc1ccc(NC(=O)C2Cc3c(-c4ccccc4)ccnc3O2)cc1OC (stereo not drawn) | 7% | 35µM* |
| COC(=O)C1(C(=O)OC)c2cc3c(cc2CN(S(=O)(=O)c2ccc(C)cc2)C1CC(C)=O)OCO3 (stereo not drawn) | 0% | 0% |
| COc1ccc(NC(=O)C2Cc3c(-c4cccc(C(N)=O)c4)ccnc3O2)cc1 (stereo not drawn) | -7%[18.4 µM] | -10% |
| COc1ccc(NC(=O)C(c2cccc3ccccc23)n2c(=O)c(-c3ccco3)nc3ccccc32)cc1 (stereo not drawn) | 6% | -17% |

These rows are one share of the data; the hit share may differ from the screen's.
